B2AR ag: agonists of human beta-2 adrenergic receptor inducing internalization; P07550; Am2.2-beta2AR cells, FAP receptor internalization, flow cytometry; reference of the scale not given here; response, % (no concentration beside the values); 340,000 compounds, 0.43% hits; AID 504454;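 active = response above a set limit, near 3 SD of response in nonfluorescent compounds, cut at about 42% in these data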;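 also: stock transfer was 100 nL into about 11 µL; a reference agonist was the positive control; negative values mostly stem from fluorescent compounds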
Target sequence (P07550 whole entry, looked up): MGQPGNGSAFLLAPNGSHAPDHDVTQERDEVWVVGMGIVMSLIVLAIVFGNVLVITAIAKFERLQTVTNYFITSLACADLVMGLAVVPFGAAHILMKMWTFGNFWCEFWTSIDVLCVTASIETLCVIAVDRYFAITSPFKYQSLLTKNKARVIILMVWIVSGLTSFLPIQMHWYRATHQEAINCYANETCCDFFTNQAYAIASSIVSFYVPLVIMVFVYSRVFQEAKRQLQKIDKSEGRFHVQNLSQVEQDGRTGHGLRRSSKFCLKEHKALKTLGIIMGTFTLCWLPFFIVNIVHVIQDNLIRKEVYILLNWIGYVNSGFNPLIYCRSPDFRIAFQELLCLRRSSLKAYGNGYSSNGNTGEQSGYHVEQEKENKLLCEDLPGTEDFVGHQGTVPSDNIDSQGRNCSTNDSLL
UCH37 DUB inh: blocks the human deubiquitinase UCH37; purified proteasome/UCH37, Ub-AMC cleavage fluorescence; inhibition, % (concentration not given with the values); 330,000 compounds, 0.33% hits;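 active = mean of two replicates above 20%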;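 also: 0% = compound-free wells with enzyme and 100% = wells lacking proteasome; stock transfer was 100 nL into about 20 µL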
Target sequence (Q9Y5K5 whole entry, looked up): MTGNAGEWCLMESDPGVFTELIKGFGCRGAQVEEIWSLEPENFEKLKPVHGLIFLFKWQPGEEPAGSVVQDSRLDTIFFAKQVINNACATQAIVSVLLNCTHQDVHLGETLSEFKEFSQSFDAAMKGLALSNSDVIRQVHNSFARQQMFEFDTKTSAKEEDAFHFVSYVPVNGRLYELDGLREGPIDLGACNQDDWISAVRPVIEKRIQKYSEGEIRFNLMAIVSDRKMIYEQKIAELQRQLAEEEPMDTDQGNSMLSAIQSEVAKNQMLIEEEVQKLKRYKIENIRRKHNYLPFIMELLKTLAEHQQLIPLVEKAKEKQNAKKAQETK
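System: Proteasome-associated human UCH37 deubiquitinase; Input: 0.15 nM proteasome in added enzyme buffer; Also added: Ub-AMC substrate from 1 µM stock; Incubation: 30 min compound-proteasome preincubation then 25 min substrate reaction, room temperature; Detection: fluorescence, ex 355 nm, em 460 nm; Read-out: % inhibition of Ub-AMC cleavage fluorescence; Benchmarks: no-proteasome and no-compound wells.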
Beta cell apopt: beta cell apoptosis inhibition; INS-1E cytokine-induced death, ATP luminescence, 48 h; percent of positive-control rescue, neutral wells zero; protection from apoptosis, % (test concentration not listed); 300,000 compounds, 0.8% hits; AID 435005;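 active = all replicates at 75% or more, or half of them and the mean; inconclusive = half reach 75% but not the mean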;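 also: 0% = cytokine-treated negative control wells and 100% = positive control rescue; higher means more ATP so stronger rescue from cytokine killing; wells of about 40 µL received 100 nL stock; the first replicate is given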
Calb FLC: C. albicans growth modulation with fluconazole. C. albicans CaCi-2 (fluconazole-resistant clinical isolate) + fluconazole, Alamar Blue growth, 48 h. growth inhibition, % (test concentration not listed). AID 1979. 300,000 compounds, 0.57% hits;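 active = most replicates above 75%; inconclusive = exactly half above 75%; inactive = most below 75%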;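 also: all wells also contain fluconazole at 8 µg/ml as a sub-toxic cotreatment; 0% = median of DMSO wells and 100% = median of geldanamycin control wells; wells of about 8 µL received 7.5 nL stock; the first replicate is given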
RanGTP-Imp inh: disruptors of Ran-importin-beta complex formation – biochemical, FRET, CFP-Ran, YFP-importin-beta, homogeneous, primary screen. cell-free CFP-Ran/YFP-importin-beta FRET ratio. inhibition, % (test concentration not listed). 300,000 compounds, 1.1% hits;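 active = most replicates above 15%; inconclusive = exactly half above 15%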;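 also: 0% = DMSO wells and 100% = Ran loaded with GDP instead of GTP; wells of about 40 µL received 100 nL stock; the first replicate is given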
Bfl-1 A1 inh: inhibitors of the anti-apoptotic protein A1, read as caspase activation | MEF A1-2A-BIM cells, Caspase-Glo 3/7 luminescence, 3 h; percent of clofoctol response, vehicle zero | AID 2462 | caspase activation, % (no concentration beside the values) | 330,000 compounds, 0.066% hits;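 active = over half of replicate activation scores above 10%, or exactly half above 10 with the replicate mean above 10; inconclusive = replicate mean below 10 yet half the replicates above 10; inactive = over half of replicates below 10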;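 also: wells of about 30 µL received 50 nL stock; many hits fall short of the cut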
T cruzi inh: blocks replication of Trypanosoma cruzi. 300,000 compounds, 1.4% hits. AID 1885. T. cruzi beta-gal in NIH3T3, luminescence, 90 h. inhibition, % (no concentration beside the values);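 active = mean inhibition across valid replicates above about 55%, limit read from the data; inconclusive = mean below that limit but half or more replicates reach it; inactive = mean below it, under half of replicates reach it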;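 also: signal also drops with host cell toxicity which is not excluded here; 0% = plate median of DMSO wells and 100% = zero luminescence signal; higher percent means less beta-gal luminescence so fewer parasites; stock transfer was 50 nL into about 50 µL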
LANA-H2A inh: blocks KSHV LANA binding to histone H2A/H2B; Q9QR71; cell-free LANA-H2A/H2B peptide, fluorescence polarization; inhibition, % (concentration not given with the values); 320,000 compounds, 0.6% hits; in the data active = inhibition mostly above about 10%, no sharp cut-off; inactive = mostly below about 6.7%;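 also: stock transfer was 7.5 nL into about 10 µL; 0% = median of vehicle wells and 100% = median of positive control wells; one replicate is shown; the record names a cut of 25% in any replicate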
* = called active by the depositor; ? = inconclusive; nt = not tested or not shown. This is a random part of the collection; overall some 4.3% were active at least once.

SMILES	B2AR ag	UCH37 DUB inh	Beta cell apopt	Calb FLC	RanGTP-Imp inh	Bfl-1 A1 inh	T cruzi inh	LANA-H2A inh
CCOC(=O)c1c(C)[nH]c(=S)c(C#N)c1-c1ccccc1	4	4.5	-4	-3	-0.4	1.2	-3	0.6
CC(=O)NS(=O)(=O)c1ccc(NC(=O)c2ccc(S(=O)(=O)N3CCCC3)cc2)cc1	-12	2.3	-2	nt	nt	0.4	nt	-14
C/C(=N\NC(=O)c1cc2c(s1)CCC(C)C2)c1ccc[nH]1 (stereo not given)	-5	nt	10	nt	nt	-11	nt	2.9
c1cncc(Nc2c3ccccc3nc3ccccc23)c1	-18	-5.5	27	-4	34*	0.7	35	-0.2
O=C(COc1ccc(Br)cc1Br)NNC(=O)c1cccs1	-17	1.4	-3	-12	-0.8	-0.3	-1	-0.8
COc1ccc(CN(Cc2nc3ccccc3c(=O)[nH]2)C(=O)c2ccco2)cc1	-6	4.3	-6	-4	-4.0	0.0	6	-3.7
CC(C)N(C)CCOC(=O)c1ccccc1Cl	2	-2.6	-2	-8	1.3	-0.3	-11	5.5
O=C(CN1C(=O)C2CCCCC2C1=O)Nc1ccc(OC(F)F)c(Cl)c1 (stereo not given)	-5	2.2	-2	nt	nt	1.3	nt	0.0
CCC(=O)c1ccc(OCC(O)CN2CCN(C(c3ccccc3)c3ccccc3)CC2)cc1 (stereo not given)	27	0.7	-3	7	5.7	0.3	35	1.1
COc1ccc(OCC(=O)N2CCC(n3nccc3NC(=O)C3CC3)CC2)cc1	-6	-1.9	-5	-6	-1.0	-0.8	-7	1.1
O=C(Nc1ccc(N2CCOCC2)cc1)C1CCN(S(=O)(=O)c2ccc3c(c2)OCCO3)CC1	-2	1.2	4	-2	-0.8	0.3	4	3.8
O=C(CSc1ccc(F)cc1)Nc1ccc(Br)cc1	-18	0.1	0	-11	2.3	0.1	-18	-1.9
CCc1ccccc1NC(=O)c1cnc2n(c1=O)CCS2	-7	-25	-10	14	1.4	-0.6	0	2.8
CCc1ccc(NC(=O)c2n[nH]c(=O)c3ccccc23)cc1	0	3.9	-1	-2	3.9	-1.9	-25	-2.7
O=C(CCc1ccccc1)Nc1cc(Cl)ccc1O	3	1.8	0	-18	-2.3	-4.5	-6	-2.0
COc1cc(C=O)ccc1Oc1nnnn1-c1ccc(C(N)=O)cc1	-1	3.0	-2	1	-2.2	-0.2	-3	-2.0
O=C(O)CSc1nnc(-c2ccc(Cl)cc2Cl)n1-c1ccccc1	-3	nt	-5	22	2.3	-0.3	-11	-1.7
CCC(C)(C)n1nnnc1C(c1ccccc1)N1CCN(C2CCCC2)CC1 (stereo not given)	-2	-1.3	3	-9	7.4	0.5	-22	-0.1
Cc1cccc(/C=N/NC(=O)c2cccc([N+](=O)[O-])c2)n1	10	nt	7	-1	-1.4	-0.8	-2	-2.6
c1ccc(Sc2nc(N3CCCCC3)nc(N3CCCCC3)n2)nc1	14	-0.5	-2	-19	-3.0	-0.1	28	-0.7
Cc1nc(C)c(C(=O)O)c(-c2cccs2)c1C(=O)O	16	2.6	-3	5	-0.3	1.0	-6	-0.3
O=C(Cn1c(=O)c2cccn2c2cccnc21)N1CCN(c2ccccc2F)CC1	-6	-7.5	5	-3	2.9	1.0	10	0.3
O=C(Nc1cccc2cccnc12)c1cccc2ccccc12	-4	-8.3	0	17	4.0	-0.3	-23	-1.9
COc1ccc(OCCCC(=O)Oc2ccc(OC)cc2)cc1	4	0.0	-3	-1	-0.9	1.3	-21	-1.7
Cc1oc2nc(SCCCC(=O)NCCCO)nc(N)c2c1C	-9	nt	-4	13	0.0	-0.4	0	-0.9
CCc1cc(Br)ccc1N1C(=O)C2CC=CCC2C1=O (stereo not given)	1	-3.3	0	0	3.7	-0.5	11	0.3
O=C(O)c1cccc(N2C(=S)N=C(Nc3ccccc3)C23CCCCC3)c1	-2	2.9	1	38	0.0	-0.4	-7	-0.1
CC1CCCN(C(=O)CCNC(=O)c2ccccc2Cl)C1 (stereo not given)	-3	-1.3	0	-13	0.9	0.0	-6	2.1
Cc1cc(C(=O)N/N=C/c2c(C)[nH]n(-c3ccccc3)c2=O)n[nH]1	1	nt	-2	0	0.2	0.6	-13	2.8
CCN(CC)S(=O)(=O)c1ccc(N2CCOCC2)c(NC(=O)c2ccccc2F)c1	-11	4.3	12	2	2.6	-0.5	19	-8.6
COC(=O)[C@@]1(Cc2ccc(F)cc2)[C@H]2c3cc(C(=O)N(C)C)n(CCSCCO)c3C[C@H]2CN1C(=O)c1ccccc1	nt	0.7	-1	14	-1.9	0.1	29	-1.2
Cc1ccc(S(=O)(=O)N(C)C[C@@H]2Oc3c(NS(C)(=O)=O)cccc3C(=O)N([C@H](C)CO)C[C@@H]2C)cc1	-3	2.2	-8	nt	nt	1.3	nt	5.2
CCn1c(-c2ccc(C)cc2)n[nH]c1=S	4	1.1	3	3	1.0	-0.4	-11	7.5
O=C(O)CCC(=O)N(Cc1cccnc1)Cc1cccc(F)c1	9	2.9	0	-30	2.3	0.8	nt	-1.0
O=C(CCNS(=O)(=O)c1ccccc1F)N1CCN(S(=O)(=O)c2cccc(F)c2)CC1	0	-1.7	-2	-1	2.4	-0.2	-6	-1.1
CCOC(=O)c1c(C)[nH]c(C(=O)OCC(=O)NCc2ccc(C)cc2)c1C	8	-0.6	1	nt	nt	0.9	nt	1.5
Cc1ccc(S(=O)(=O)N2CCCCC2)cc1NC(=O)CCN1C(=O)C2CC=CCC2C1=O (stereo not given)	2	2.1	-1	nt	nt	-1.2	nt	-0.9
CC(C)CSc1n[nH]c(N)n1	-14	0.0	-4	3	-0.3	0.0	-9	-0.6
COc1ccc(-c2nc(SCc3ccccc3)n(C(=O)c3ccco3)n2)cc1	1	-0.3	-4	?	2.3	-0.8	9	-1.6
Cc1csc(CN(C)C(=O)C2CCC(=O)N(Cc3ccc(Cl)cc3)C2)n1 (stereo not given)	2	-1.6	-3	42	-3.8	-1.3	-19	-0.9
COCc1ccc(CN2CCC(Oc3ccc(C(=O)NCc4ccccn4)cc3)CC2)o1	13	-0.4	1	6	2.0	1.7	-1	3.2
COc1ccc(CCNC(=O)CN2C(=O)COc3ccc(S(=O)(=O)N4CCOCC4)cc32)c(OC)c1	-3	0.0	-3	18	0.8	1.1	11	0.8
Cn1cccc1/C=C1\CC(C(C)(C)C)C/C(=C\c2cccn2C)C1=O (stereo not given)	7	3.1	-5	16	?	0.1	38	-1.8
COc1ccc(NC2CCCN(C(=O)CCN3CCCC3=O)C2)cc1 (stereo not given)	-1	-1.2	5	3	-3.0	-0.5	2	3.6
CCOC(=O)Cc1csc(NC(=O)COc2ccc3c(c2)CCC3)n1	-3	2.4	0	3	-0.3	0.0	-1	6.8
COc1cc2oc(=O)c3c(c2cc1OCC(=O)c1c(C)n(C)c2ccccc12)CCCC3	5	-121	-2	2	0.1	0.1	7	2.6
COc1ccc(CNc2ccc(N3CCOCC3)cc2)cc1	5	0.7	1	-4	3.7	0.6	26	-6.5
Nc1ncnc(NCc2ccccc2)c1[N+](=O)[O-]	7	1.8	-5	-8	2.5	-0.1	-15	1.5
COc1ccc(N2CCN(C(=O)c3ccc(CS(=O)Cc4ccc(C)cc4)o3)CC2)cc1 (stereo not given)	-9	-1.4	-2	0	-1.8	-0.2	-20	-2.5
CC(C)CNC(=O)NC(=O)COc1ccc(C=O)cc1	2	0.1	-12	-48	3.3	1.0	3	1.3
CCOC(=O)c1c(-c2cccs2)csc1NC(=O)CN1CC(C)OC(C)C1 (stereo not given)	8	2.1	9	9	1.8	-1.3	49	1.7
CCOC(=O)c1c(-c2ccc(C)cc2)csc1/N=C(\C)C1=C(O)c2ccccc2C1=O	9	nt	-5	-1	-2.9	-0.5	15	-2.5
Cc1nnc(SCC(=O)NC2CC2)n1-c1ccccc1	-9	2.1	-8	3	-0.4	0.1	-20	-1.3
Cc1cc(Br)ccc1OCCCCN1CCCCC1	13	4.3	8	-17	-3.3	0.6	64*	-5.6
CCn1c(SCC(=O)N/N=C/C=C\c2ccccc2[N+](=O)[O-])nnc1-c1ccccc1	-3	nt	-4	-16	-1.5	-0.6	-6	-1.7
O=C(O)CN1C(=O)C2C3CC(C2C1=O)C1C(c2ccc(Cl)cc2)c2sc(=O)[nH]c2SC31 (stereo not given)	5	1.9	-4	-22	73*	0.2	0	-2.3
COc1ccccc1C(=O)N1CCN(Cc2cccnc2)CC1	-2	0.9	-1	4	-0.4	1.6	18	0.9
COc1ccc(CN2CCN(Cc3ccccc3F)CC2)c(OC)c1	-2	2.3	-6	4	0.2	-0.2	50	0.2
CCOc1cc(N2CCOCC2)c(OCC)cc1NC(=O)CSc1ncccc1C(=O)O	8	1.3	-1	nt	nt	0.0	nt	5.9
CC(NS(=O)(=O)c1ccc(Cl)c(Cl)c1)C(=O)OCC(=O)Nc1ccc2c(c1)OCO2 (stereo not given)	-1	-1.4	-6	10	-3.3	0.2	-15	-6.1

More records follow:
SMILES	B2AR ag	UCH37 DUB inh	Beta cell apopt	Calb FLC	RanGTP-Imp inh	Bfl-1 A1 inh	T cruzi inh	LANA-H2A inh
C#CCCOC(=O)Nc1ccccc1	-1	3.5	-7	nt	-1.4	-0.2	-13	-0.7
CCCCN(C)CCCNC(=O)CS(=O)Cc1nc(-c2ccc(OC)c(OC)c2)oc1C (stereo not given)	2	4.7	-6	12	-10	0.0	5	-2.1
COc1ccccc1NC(=O)Nc1ccc(Cc2ccncc2)cc1	5	1.2	-5	-3	?	-0.9	43	3.4
C=CCNC(=O)c1ccccc1NC(=O)c1ccc(Cl)c(S(=O)(=O)Nc2cccc(C)c2C)c1	-6	-4.2	13	3	-3.9	-2.5	22	-1.9
COc1cc(C(=O)Nc2ccc(O)cc2C(=O)O)ccc1OC(C)=O	3	2.3	-6	-3	0.9	0.7	-27	7.3
CCN(c1ccccc1)S(=O)(=O)c1ccc(NN)nc1	3	1.7	-7	nt	nt	0.4	nt	1.9
CC(=O)N1CCN(C(=O)CCC(=O)O)CC1	11	nt	-8	3	-3.9	-0.7	-2	-3.5
CN1CCN(S(=O)(=O)Cc2ccccc2Cl)CC1	-7	-1.6	-5	-9	2.5	0.2	7	-7.2
O=C(NC1CC1)c1sc2ccccc2c1Cl	2	3.8	-5	-9	-0.9	-5.9	-1	-0.2
CCOc1ccccc1NC(=O)CCS(=O)(=O)c1ccc(Br)cc1	13	0.4	-2	3	2.1	-0.4	10	0.1
O=C(Nc1ccsc1C(=O)N1CCCCCC1)c1ccccc1	-9	0.2	-3	23	2.2	0.7	-1	-2.0
C/C(=N\NC(=O)c1nnn(-c2nonc2N)c1-c1cccs1)c1ccc(C)cc1	-4	nt	2	0	-0.2	-0.5	1	0.3

Looked up above:
RanGTP-Imp inh result of C#CCCOC(=O)Nc1ccccc1 is entered as -1.4
Beta cell apopt result of CC(C)CSc1n[nH]c(N)n1 is entered as -4

High-throughput results (PubChem BioAssay)
